MARV entry inh = inhibitors of Marburg virus binding or cell entry; Marburg virus pseudotyped entry inhibition, cell reporter; control for the full effect not named in the record; about a third of the inactives were read at about 46 µM; Potency, µM (highest dose often 37.8 µM), without a hit: at the top dose activity change, negative = inhibition, hits mostly inhibitors; hit rate 1.8% among 300,000; AID 540276; active = well fitted inhibition curve with a large enough effect; inconclusive = small, poorly fitted or top-dose-only effect, or effect the other way; inactive = flat fitted curve, though single readings scatter; tested in HEK293 cells; about a fifth of its hits are not listed in these tables; also: % is scaled to controls: 0 for no effect and ±100 for the full control effect; luciferase read-out
Cruzain inh noDet = cruzain (T. cruzi) inhibition without detergent; P25779; purified cruzain, Z-FR-AMC fluorescence, no detergent; Potency, µM, for inactives: max response, negative = inhibition, most hits filed as inhibitors; hit rate 2.3% among 200,000;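 also: plate controls were enzyme without inhibitor for no effect and buffer without enzyme for full effect; nearly all actives have a fitted effect of over 40% in size; top concentration of the series not given in the record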
Target sequence (P25779 123-467 limits assumed): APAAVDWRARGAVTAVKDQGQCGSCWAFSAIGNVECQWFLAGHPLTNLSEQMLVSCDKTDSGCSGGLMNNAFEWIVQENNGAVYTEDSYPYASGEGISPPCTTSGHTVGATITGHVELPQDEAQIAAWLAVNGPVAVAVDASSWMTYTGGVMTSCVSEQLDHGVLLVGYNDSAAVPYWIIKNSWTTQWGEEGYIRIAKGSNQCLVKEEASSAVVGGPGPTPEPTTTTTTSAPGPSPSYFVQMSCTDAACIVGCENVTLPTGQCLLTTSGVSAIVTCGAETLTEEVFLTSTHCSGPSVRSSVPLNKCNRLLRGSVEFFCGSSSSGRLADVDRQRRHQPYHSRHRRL
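Purified cruzain at 1.5 nM, pre-incubated 15 min with compound at room temperature in 100 mM sodium acetate pH 5.5, 5 mM DTT, 0.00005% Triton X-100. Reaction started with 2 uM Z-FR-AMC; AMC fluorescence increase over 60 s gives rate.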
SARS PLP yeast = blocks SARS-CoV papain-like protease in a yeast assay; AID 485353; Potency, µM (titrated, usually from 32.9 µM), for the others: at the highest dose activity, positive = growth rescue; S. cerevisiae expressing SARS-CoV PLpro, growth rescue; control for the full effect not named in the record; hit rate 0.19% among 330,000; active means well fitted rising curve with a large enough effect; inconclusive means small, poorly fitted or top-dose-only effect; inactive means no such curve, though single readings can be large or run the other way; also: 0% is about no effect; nearly all actives have a fitted effect of over 55% in size; growth read by luminescence after 48 h
Lassa entry inh = inhibitors of Lassa virus binding or cell entry; Lassa virus pseudotype entry inhibition, cell reporter; control for the full effect not named in the record; hit rate 1.2% among 300,000; Potency, µM (top dose mostly 37.9 µM), inactives show at the highest dose activity change, negative = inhibition, most hits filed as inhibitors; active means well fitted inhibition curve with a large enough effect; inconclusive means small, poorly fitted or top-dose-only effect, or effect the other way; inactive means flat fitted curve, though single readings scatter; tested in HEK293 cells; also: % is scaled to controls: 0 for no effect and ±100 for the full control effect; nearly all actives have a fitted effect of over 50% in size; luciferase read-out
NS1 inh = blocks influenza NS1 protein function | Potency, µM (titrated, usually from 46.1 µM), for the others: top-dose activity, positive = more growth | AID 2326 | hit rate 0.4% among 270,000 | S. cerevisiae slowed by influenza A NS1, growth recovery by OD600; active means well fitted rising curve with a large enough effect; inconclusive means small, poorly fitted or top-dose-only effect; inactive means no such curve, though single readings can be large or run the other way; also: nearly all actives have a fitted effect of over 50% in size
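Growth recovery, yeast-based: influenza A NS1 expressed in S. cerevisiae causes slow growth, and suppressors are detected by OD600. The parent strain without NS1 is used as positive control.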
RE007 growth inh = less growth of the S. pombe RE007 Vpr strain | S. pombe RE007 Vpr strain, BacTiter-Glo ATP luminescence, 24 h; control for the full effect not named in the record | Potency, µM (series often up to 92.2 µM), inactives show at the top dose activity change, negative = less growth | hit rate 0.21% among 360,000; active = well fitted falling curve with a large enough effect; inconclusive = small, poorly fitted or top-dose-only effect; inactive = no such curve, though single readings can be large or run the other way;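 also: % is scaled to controls: 0 for no effect and ±100 for the full control effect; nearly all actives have a fitted effect of over 50% in size; the assay follows cell death caused by Vpr and the record does not say whether a fall means rescue or toxicity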
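Fission yeast strain RE007, carrying one chromosomally integrated HIV-1 vpr copy, was seeded at OD 0.01 in PMG+AL medium with 23 nL pinned compound. After 24 h at 30 °C and 99% humidity, viability was read by BacTiter-Glo luminescence.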
2A StopGo = lowers the luciferase signal of an FMDV 2A StopGo reporter. hit rate 1.2% among 410,000. Potency, µM (top dose mostly 57.9 µM), without a hit: at the highest dose signal change, negative = less light. human cells with a luciferase reporter of 2A StopGo recoding; control for the full effect not named in the record; active = well fitted falling curve with a large enough effect; inconclusive = small, poorly fitted or top-dose-only effect; inactive = no such curve, though single readings can be large or run the other way; tested in HEK293T cells; also: % is scaled to controls: 0 for no effect and ±100 for the full control effect; nearly all actives have a fitted effect of over 45% in size; luciferase light after 4 h
Cruzain Triton = cruzain (T. cruzi) inhibition with detergent | P25779 | purified cruzain, Z-FR-AMC fluorescence, 0.01% Triton | Potency, µM, for inactives: max response, negative = inhibition, hits mostly inhibitors | hit rate 0.43% among 200,000 | AID 1478;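 also: plate controls were neutral wells for no effect and buffer without enzyme for full effect; nearly all actives have a fitted effect of over 40% in size; top concentration of the series not given in the record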
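In this qHTS format, compounds are incubated with 1.5 nM cruzain for 15 min at room temperature before 2 uM Z-FR-AMC is added. Release of AMC is followed at 360/450 nm, and progress is taken as the 60 s fluorescence difference.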
An asterisk follows results filed as active; ? = inconclusive; . = not tested or not shown; [ ] = remark or other dose. Unless noted, calls follow the shape of the dose curve; as a rule, active = well fitted curve in the direction sought with a large enough effect; inconclusive = small, poorly fitted or top-dose-only effect, or another doubt; inactive = no such curve, though single readings can be large; an effect the other way counts as inactive or inconclusive. Potency is read from the fitted curve at half-maximal effect. Outcome played no part in choosing rows; any-hit rate near 4.7%.

SMILES	MARV entry inh	Cruzain inh noDet	SARS PLP yeast	Lassa entry inh	NS1 inh	RE007 growth inh	2A StopGo	Cruzain Triton
COc1cc2oc(=O)cc(-c3ccc(-c4ccc(C(F)(F)F)cc4)cc3)c2c(OC)c1OC	.	-10%	5%	.	.	-6%	?	0.1%
Cc1cc(NC(=O)C(=O)NCCN2CCN(S(C)(=O)=O)CC2)ccc1Br	-1%[46.1 µM]	.	1%	-10%	4%	1%	-6%	.
COCCn1c(-c2ccc(Cl)cc2)cnc1SCC(=O)NCc1cccs1	-9%[46.1 µM]	17%	3%	-12%	-66%	-9%	-35%	-2.7%
COCCNC(=O)C(=O)Nc1cc2c3c(c1)C(C)C(=O)N3CCC2 (stereo unspecified)	.	.	0%	.	5%	2%	15%	.
COc1ccc(-c2nc(C#N)c(NCCCN3CCOCC3)o2)cc1	.	-13%	?	.	?	-3%	16%	20µM*
O=C(NC1CCN(Cc2ccccc2)CC1)c1cccc(Br)c1	-7%	.	0%	-13%	-4%	-21%	-17%	.
CCN(Cc1ccccc1)c1ccc(/C=C(\C#N)c2ccccn2)cc1	-18%	2%	8%	18%	-6%	4%	48%[activator]	-6.8%
CC(C)=C1C2CCC1C(C(=O)NCc1ccccc1)C2C(=O)O (stereo unspecified)	-13%	7%	-4%	4%	-99%	0%	-18%	4.4%
C(=N\N(Cc1ccccc1)c1ccccc1)/c1ccco1	19%[46.1 µM]	.	9%	-18%[46.1 µM]	.	?	0%	.
NS(=O)(=O)c1ccc(CNC(=O)c2cc(-c3cccnc3)nc3ccccc23)cc1	?	.	-1%	6%	-15%	1%	?	.
CCOC(=O)c1nn(-c2ccc(C)c(C)c2)cc1O	-2%	6%	-19%	10%	-37%	-22%	32%[activator]	-3.1%
CCC(=O)NC(c1ccc(C)cc1)c1cc([N+](=O)[O-])c2cccnc2c1O (stereo unspecified)	?	-4%	3.2µM*	?	15%	-9%	?	3.0%
CCOCCc1nnc(NC(=O)CCC2CCCCC2)s1	.	.	-6%	.	-4%	4%	-11%	.
COc1cccc(C(=O)Nc2ccc(-c3nc4ccc(C)cc4s3)cc2)c1OC	.	20%	.	5%[46.1 µM]	.	.	0%	0.1%
Cc1cc(C(=O)Nc2ccc(-n3c(C)nc4ccccc4c3=O)cc2)ccc1[N+](=O)[O-]	.	13%	.	-2%[46.1 µM]	.	.	-18%	0.6%
O=C(NNc1nc2c(F)cccc2s1)c1ccc(F)cc1	-13%[46.1 µM]	.	3%	?	.	14%	-16%	.
CCOc1ccc(Nc2nc(Cc3nnc(SCC(=O)NCC4CCCO4)n3C)cs2)cc1 (stereo unspecified)	.	-1%	-1%	.	-1%	12%	-3%	-1.1%
CCc1ccc(Nc2nnc(SCC(=O)Nc3cccc(S(=O)(=O)NC4=NCCCCC4)c3)s2)cc1	?	-3%	-5%	?	11µM*	.	-38%	-3.7%
Cc1ccsc1CNn1cnnc1SCc1ccc(Cl)cc1	1%	6%	4%	1%	-8%	7%	-6%	-6.6%
CC1(C)Cc2c(ccc3ccccc23)/C(=C/C#N)N1	?	-12%	-2%	16%	15%	8%	.	-15%
O=S1(=O)CCN(CCc2c[nH]c3ccccc23)CC1	-11%[46.1 µM]	.	0%	15%[46.1 µM]	4%	-13%	-1%	.
COc1cccc(-c2nn(C)c3sc(C(=O)N4CCN(c5ccccn5)CC4)cc23)c1	?	?	-10%	?	-56%	-24%	?	-8.8%
CC(C)(C)C1=C(C#N)C(c2ccncc2)C(C#N)=C(N)O1 (stereo unspecified)	-16%	2%	-14%	2%	-9%	-11%	0%	-0.2%
CSc1ccc(CN(C)C(C)C(=O)Nc2ccc(F)c(F)c2F)cc1 (stereo unspecified)	.	.	-6%	.	-9%	-17%	-25%	.
c1ccc(-c2nc(-n3ccnc3)nc(-n3ccnc3)n2)cc1	?	3%	-9%	-15%	-78%	-3%[3.69 µM]	?	-0.1%
Cc1ccc(-n2c(SCC(=O)Nc3cc(S(=O)(=O)N4CCOCC4)ccc3Cl)nc3ccccc3c2=O)cc1	20%	?	10%	-5%	?	-6%	21%	0.0%
Cn1c(=O)c2c(ncn2CC(=O)N2CCN(S(=O)(=O)c3ccccc3)CC2)n(C)c1=O	8%	.	-3%	-2%	0%	-21%	-22%	.
CCOC(=O)C1=C(N)OC(CCl)=C(C#N)C1c1ccsc1 (stereo unspecified)	-17%	-5%	27%	18%	-19%	4%	?	-15%
Cc1ccc(C(=O)Nc2ccccc2C(=O)O)cc1S(=O)(=O)Nc1ccccc1	.	.	0%	.	16µM*	2%	106%[activator]	.
COc1ccc([N+](=O)[O-])cc1NC(=O)c1ccccc1N(C)S(C)(=O)=O	1%[46.1 µM]	.	3%	7%[46.1 µM]	.	-14%	0%	.
Cc1ccccc1Nc1c(-c2ccc(Cl)s2)nc2c(C)cccn12	-11%[46.1 µM]	-19%	.	23%[46.1 µM]	.	.	12%	-6.6%
O=C(CN1C(=O)CCC1=O)Nc1ccc2c3c(cccc13)CC2	?	3%	2%	0%	2%	1%	-1%	1.6%
Cc1ccc(OC(=O)CCC(=O)Nc2ccc(S(=O)(=O)Nc3cc(C)on3)cc2)cc1	1%	-12%	2%	17%	4%	-11%	3%	-2.4%
Cc1ccc(-c2nn(-c3ccccc3)cc2NC(=O)CCl)cc1	?	.	-3%	?	.	-4%	?	.
O=C(Nc1ccncc1)Nc1ccc(F)c(Cl)c1	.	.	-1%	.	3%	1%	19%	.
CCc1nc(SCC(=O)NNC(=O)c2ccc(OC)cc2)c2ccccc2n1	-27%[46.1 µM]	.	0%	-2%	-3%	-3%	-12%	.
O=C(CSc1nnc2ccc(-c3ccccn3)nn12)Nc1ccccc1F	4%	.	.	-5%	.	5%	-15%	.
C/C(=N\NC(=O)c1c(Cl)cnn1C)c1cccc(NC(=O)COc2ccccc2)c1	?	?	-6%	?	-2%	-27%	?	-3.6%
O=C(Nc1ccccc1Cl)c1ccc2nsnc2c1	?	.	5%	2%	-2%	-5%	42%[activator]	.
CC(=O)NCCc1ccc(O)cc1	.	.	2%	.	3%	16%	-24%	.
COc1cc(C(=O)Nc2c(C(=O)O)[nH]c3ccc(C)cc23)cc(OC)c1OC	.	.	0%	.	3%	-1%	-26%	.
CCOc1cccc(N2C(=O)/C(=C/c3ccco3)C(=O)NC2=S)c1	.	.	-3%	.	?	3%	-15%	.
Cn1c(=O)c2nc(SCC(=O)Nc3cc(Cl)cc(Cl)c3)n(C)c2n(C)c1=O	.	0%	.	27%[46.1 µM]	.	.	2%	-1.4%
O=[N+]([O-])c1ccc(Oc2cccnc2)nc1	-1%	.	0%	26%	6%	0%	-4%	.
COc1ccccc1CC(NC(C)=O)C(=O)NC1CCN(C(=O)c2ccc(C)cc2)CC1 (stereo unspecified)	-17%[46.1 µM]	.	-2%	.	-2%	-7%	3%	.
O=C1CSC(=S)N1Cc1cccnc1	?	-9%	-10%	?	-89%	?	?	7.1%
O=C(COc1cc2oc(=O)c3c(c2cc1Cl)CCC3)Nc1ccccn1	.	.	4%	.	5%	-4%	0%	.
COc1ccc(N2CCN(C(=O)CSc3nnc(-c4ccco4)n3C)CC2)cc1	-11%[46.1 µM]	.	0%	-11%[46.1 µM]	2%	10%	-19%	.
O=C(NNc1ccc(Cl)cc1)c1c(F)cccc1Cl	29%	.	-2%	17%	-48%	58%	-2%	.
COc1ccc([C@@H]2C[C@H](c3ccccc3)Oc3cc(C)cc(C)c32)cc1	.	.	-7%	.	-6%	2%	-1%	.
CCCCn1c(NC(=O)c2ccccc2)nc2ccccc21	?	-13%	5%	?	-118%	?	.	-16%
COc1ccnc(Oc2ccc(F)cc2)c1C(=O)N/C=N/OCc1c(Cl)cccc1Cl	-7%	?	-1%	3%	3%	11%	.	-6.3%
COc1cccc(Oc2ccc(S(=O)(=O)N3CCCC3)cc2[N+](=O)[O-])c1	-18%[46.1 µM]	.	7%	?	4%	4%	35%[activator]	.
Cc1cc(C)c(C)c(S(=O)(=O)NC(C(=O)O)C(C)C)c1C (stereo unspecified)	.	.	1%	.	2%	10%	6%	.
COCC(=O)Nc1cc(C)cn(Cc2ccc(F)cc2)c1=O	.	.	20%	.	2%	-1%	21%	.
CCc1ccccc1Nc1cc(C(=O)NC2CCC(C)CC2)c2ccccc2n1 (stereo unspecified)	1%[46.1 µM]	-4%	.	?	.	.	54%[activator]	-10%
Cc1ccc(-c2noc(CNC(=O)c3ccc4c(c3)OCO4)n2)cc1	-4%[46.1 µM]	.	-3%	20%	-22%	-4%	-29%	.
CCOc1cccc(SCc2noc(C(=O)NCCOC)c2C(=O)O)c1	.	3%	-5%	.	19%	9%	0%	-1.5%
CCC(C)n1c(SCC(=O)NCc2ccco2)nnc1-c1cccc(S(=O)(=O)N2CCOCC2)c1 (stereo unspecified)	-27%	18%	4%	-4%	0%	0%	-3%	4.4%
O=C(COc1ccc(S(=O)(=O)N2CCCCC2)cc1)Nc1ccccc1F	-1%[46.1 µM]	.	4%	9%[46.1 µM]	6%	-2%	6%	.

More structures.
SMILES	MARV entry inh	Cruzain inh noDet	SARS PLP yeast	Lassa entry inh	NS1 inh	RE007 growth inh	2A StopGo	Cruzain Triton
CCS(=O)(=O)c1ccc2oc(SCC(=O)Nc3ccc(OC)c(OC)c3)nc2c1	-12%[46.1 µM]	.	-3%	?	.	-4%	0%	.
COc1ccc(N(C(=O)CCC(=O)Nc2cc(C)on2)C(C(=O)NC2CCCC2)c2ccco2)cc1 (stereo unspecified)	-2%[46.1 µM]	.	0%	2%	.	18%	25%	.
O=C(NCc1ccco1)C1CC(c2cc(C(F)(F)F)cc(C(F)(F)F)c2)=NO1 (stereo unspecified)	.	.	-1%	.	7%	5%	-14%	.
COc1cc(NC(=O)C2CCCN(S(=O)(=O)c3ccc4c(c3)CCCC(=O)N4)C2)cc(OC)c1 (stereo unspecified)	.	5%	.	2%[46.1 µM]	.	.	-27%	-2.9%
COC(=O)c1ccc(C2c3c(-c4ccccc4O)n[nH]c3C(=O)N2Cc2ccncc2)cc1 (stereo unspecified)	2%[46.1 µM]	-20%	.	?	.	.	-1%	-0.8%
